NPR1 antag – human Npr1 receptor antagonism | P16066 | HEK293 hNpr1 GloSensor cGMP, ANP-stimulated luminescence | Potency, µM (titrated, usually from 46.3 µM), without a hit: at the highest dose activity change, negative = inhibition, usual class: inhibitors | 76,000 compounds, 1.6% hits | AID 1347048; active = well fitted inhibition curve with a large enough effect; inconclusive = small, poorly fitted or top-dose-only effect; inactive = no such curve, though single readings can be large or run the other way;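 further: nearly all actives have a fitted effect of over 60% in size; nearly all hits also lower the signal before the agonist is added; a reference antagonist and vehicle were the controls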
Target sequence (P16066 whole entry, looked up): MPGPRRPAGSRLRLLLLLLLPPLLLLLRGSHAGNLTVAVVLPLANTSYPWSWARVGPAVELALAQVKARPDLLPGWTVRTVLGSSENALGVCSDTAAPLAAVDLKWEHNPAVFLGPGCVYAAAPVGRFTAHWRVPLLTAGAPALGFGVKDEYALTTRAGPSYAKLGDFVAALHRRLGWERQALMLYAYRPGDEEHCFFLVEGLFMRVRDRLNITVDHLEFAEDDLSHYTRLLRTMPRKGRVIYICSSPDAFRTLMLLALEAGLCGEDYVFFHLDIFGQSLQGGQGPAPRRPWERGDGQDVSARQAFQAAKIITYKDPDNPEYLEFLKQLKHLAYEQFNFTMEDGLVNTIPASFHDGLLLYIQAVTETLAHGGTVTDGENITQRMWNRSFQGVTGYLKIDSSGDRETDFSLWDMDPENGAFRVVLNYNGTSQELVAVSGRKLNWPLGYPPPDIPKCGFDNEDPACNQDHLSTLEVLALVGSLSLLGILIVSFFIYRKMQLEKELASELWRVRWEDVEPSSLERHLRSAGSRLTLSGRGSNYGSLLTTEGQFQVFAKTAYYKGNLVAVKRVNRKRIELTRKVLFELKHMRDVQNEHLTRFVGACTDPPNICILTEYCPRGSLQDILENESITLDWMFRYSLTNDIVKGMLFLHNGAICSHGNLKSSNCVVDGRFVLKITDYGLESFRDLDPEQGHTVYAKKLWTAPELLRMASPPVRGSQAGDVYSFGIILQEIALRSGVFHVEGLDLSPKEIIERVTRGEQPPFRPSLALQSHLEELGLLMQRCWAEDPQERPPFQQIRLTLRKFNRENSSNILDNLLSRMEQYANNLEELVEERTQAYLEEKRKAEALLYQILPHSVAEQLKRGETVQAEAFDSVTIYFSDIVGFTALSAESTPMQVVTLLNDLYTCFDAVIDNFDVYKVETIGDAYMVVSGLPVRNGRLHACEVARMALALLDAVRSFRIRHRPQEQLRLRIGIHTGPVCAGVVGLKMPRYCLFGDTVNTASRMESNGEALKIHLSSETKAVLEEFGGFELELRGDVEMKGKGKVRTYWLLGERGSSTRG
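HEK293 cells stably expressing human Npr1 and cGMP GloSensor pGS-40F, loaded 2 h with 2% GloSensor reagent, given compound 30 min at room temperature. Luminescence read before and 20 min after 0.1 nM hNppA.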
Active calls of the source: *; ? = inconclusive; [ ] = another dose, or the depositor's remark. On the % scale 0 is the no-effect control and ±100 the full control effect; potency means the concentration at half of the fitted maximal effect. Some of the compounds tested, so the mix of outcomes need not match the whole.

Molecule,NPR1 antag
CCc1ccc(N2CC(c3noc(-c4ccc(OC)c(F)c4)n3)CC2=O)cc1 (stereo unspecified),-5.2%
Cc1cc(C)cc(N2CCC(NC(=O)c3ccc(Br)o3)C2=O)c1 (stereo unspecified),-0.4%
COc1ccc2[nH]cc(CN3CCC([C@H]4[C@@H](OC)C(=O)N4C(C)C)CC3)c2c1,0.4%
C[C@H](O)c1onc(-c2ccccc2)c1C(=O)N1CCCCCC1,2.5%[70.6 µM]
Cn1ccc2c(C(=O)NCc3cccnc3)nc(-c3ccccc3C#N)cc21,-6.0%[70.6 µM]
CS(=O)(=O)N1CCC(OC2CCN(C(=O)Nc3ccccc3Cl)CC2)CC1,-23.0%
N#Cc1ccc(CN2C[C@@H]3C(=O)N(CCN4CCc5ccccc5C4)C(=O)[C@@H]3C2)cc1,-12.3%
C=CCNC(=O)N1CC[C@H]2CC(=O)N(CCNC(C)=O)CC[C@H]2C1,2.3%[70.6 µM]

Next section.
Molecule,NPR1 antag
COc1ccccc1NC(=O)N1CCC(N(C(=O)C2CC2)C2CCOCC2)CC1,2.6%
COc1ccc(NC(=O)N2CCc3c(C(=O)Nc4ccc5c(c4)OCO5)cccc32)cc1,12.6µM*
O=C(NCCC1=CCCCC1)c1nnn2cc(-c3ccccc3)[nH]c(=O)c12,-10.3%
Cc1cn2nc(-c3nc(C4CCCN(C(=O)c5cccc(Cl)c5)C4)no3)cc2c(=O)[nH]1 (stereo unspecified),-10.7%
Cc1ccc(C)c(C(=O)N2CCC3(CC2)NC(=O)N(c2ccc(F)cc2)N3)c1,0.8%
CN(CC1CCOCC1)S(=O)(=O)c1ccc2c(c1)CCCC2,?
CCCCN1C(=O)[C@@H]2C[C@@H](O)CN2C2(CN(C3CCCC3)C2)C1=O,1.7%[70.6 µM]
COc1ccc(-c2cc(C[C@H]3CNCC[C@H]3CC(=O)N3CCN(c4ccccc4)CC3)no2)cc1,-0.5%

The list continues:
Molecule,NPR1 antag
CC(C)n1cnnc1CC1CCN(C(=O)C2(c3ccccc3)CC2)C1 (stereo unspecified),-9.6%
O=C(c1ccc2c(c1)OCO2)N1CCC(N2CCCC2=O)CC1,0.0%[70.6 µM]
COCCNC(=O)Cc1ccc(N(Cc2cccc(F)c2)C(=O)c2ccco2)cc1,-13.7%
C[C@]1(O)CCN(C(=O)c2cccc(-n3cnnc3)c2)C[C@@H]1O,-1.7%
CN(C)C[C@H]1O[C@H](Cc2cc(-c3ccc(F)cc3)on2)CC[C@@H]1O,-18.3%[70.6 µM]
Cc1noc(C)c1-c1cc2c(cc(C)n2CCN(C)C)c(-c2cccnc2)n1,-12.8%[70.6 µM]
Cc1ccc(CN2CCC3(CC2)COc2ccccc2CN3)cc1,0.0%[70.6 µM]
O=C(c1nc(-c2cc(Cl)cc(Cl)c2)c2ccccn12)N1CCN(c2ncccn2)CC1,1.3%

(continued)
Molecule,NPR1 antag
CNC(=O)[C@@H]1C[C@@H](O)CN1C1CCN(C(=O)CCc2ccccc2)CC1,0.2%
Cc1nc(C(=O)NC2CC(c3cc(N4CCC(O)C4)ncn3)C2)cs1 (stereo unspecified),-2.7%
O=C(c1ccoc1)N1CCCC(CCc2ccc(F)c(F)c2)C1 (stereo unspecified),-10.2%
COc1cccc(NC(=O)Cn2c(=O)c(-c3noc(C)n3)c3n(c2=O)CCCC3)c1,-0.5%
COc1cc(F)ccc1-c1ccnc2nc(C3CCC3)nn12,2.9%
COCCNC(=O)[C@@H]1CCC[C@@H](NC(=O)c2cc(C)on2)CN(C)C(=O)C1,-6.2%[70.6 µM]
C[C@@H]1CN(c2ccc3nnc(-c4ccccn4)n3n2)C[C@H](C)O1,0.8%[70.6 µM]
c1ccc2oc(CN3Cc4[nH]cnc4C[C@H]3c3nc(-c4ccc5c(c4)OCO5)no3)cc2c1,-1.8%

(cont.)
Molecule,NPR1 antag
Fc1ccc(-c2cnc([C@@H]3COCCN3Cc3cnc4ccccc4c3)[nH]2)c(F)c1,-13.7%[70.6 µM]
CC(=O)NCC(=O)N1CCCn2cc(-c3cccc(C#N)c3)nc21,2.7%
Cn1cnnc1-c1nn(C)c2c1CN(C(=O)c1nn(C)c3ccccc13)CC2,2.8%
COC1CCOC2(CCN(C(=O)c3sccc3C)CC2)C1 (stereo unspecified),0.0%
CCc1ccc(N2CC(c3noc(-c4ccco4)n3)CC2=O)cc1 (stereo unspecified),-1.7%
NCC(=O)N1CCC(n2nccc2NC(=O)c2ccc3c(c2)OCO3)CC1,2.7%
COc1ccccc1-c1ccnc(-c2nnc(C)n2CCN2CCOCC2)c1,-9.1%[70.6 µM]
COC(=O)C1=C(C)N=C2SC=C(CC(=O)Nc3ccc(OC)cc3)N2C1c1cccc(OC)c1 (stereo unspecified),-6.3%

Additional records.
Molecule,NPR1 antag
O=C(NC1CCN(c2cc(-c3ccccc3)[nH]n2)C1)c1ccc2cc[nH]c2c1 (stereo unspecified),-16.1%
CCCNC(=O)N(C1CCOCC1)C1CCN(C(=O)c2cnccn2)CC1,-0.7%
COCCOC1CCN(C(=O)Cc2cccc(C)c2)CC1,-24.9%
Cn1nccc1C(O)c1cc2n(n1)CCN(C/C=C/c1ccccc1)C2 (stereo unspecified),-5.3%
O=C(COc1ccccc1)NCCC1CCN(C(=O)Nc2cc(F)cc(F)c2)CC1,-4.8%
CS(=O)(=O)N1CCc2ccc(C(=O)N3CCN(Cc4ccc5c(c4)OCO5)CC3)cc21,1.6%
Cc1cc(=O)n(CC(=O)NCc2ccccc2)c(N(C)Cc2ccccc2)n1,-15.6%
Cc1ccc(CNC(=O)Cn2c(C)cc3nc4n(c(=O)c32)CCCC4)cc1,5.6%

Look-ups from the entries so far.
Cn1ccc2c(C(=O)NCc3cccnc3)nc(-c3ccccc3C#N)cc21 | NPR1 antag = -6.0%[70.6 µM]
CCc1ccc(N2CC(c3noc(-c4ccc(OC)c(F)c4)n3)CC2=O)cc1 (stereo unspecified) | NPR1 antag = -5.2%

Further results
Molecule,NPR1 antag
CN(Cc1cccnc1)c1ccc(C(=O)NCCC2CCCCN2C)cn1 (stereo unspecified),1.9%
CCn1nc(C(=O)N2C[C@@H](CN3CCN(C)CC3)[C@@H](CO)C2)cc1C,22.2%
CCc1c(-c2nc(C3CCOC3)no2)[nH]c2ccccc12 (stereo unspecified),-7.5%
Fc1ccc(CNC[C@H]2Cn3cc(-c4ccccc4)nc3CO2)cc1,-9.8%[70.6 µM]
O=C(c1cc2ccccc2[nH]1)N1CCN(c2cc(-c3ccccc3)[nH]n2)CC1,-10.5%
CCOc1cccc(CN2CCc3nc(N4CCN(C)CC4)[nH]c(=O)c3CC2)c1,-2.5%
CCCCn1nc(C2CCOC2)nc1-c1cnc(NC)nc1 (stereo unspecified),1.9%
O=C(COc1ccc(F)cc1)NCC(=O)N1CCCCCCNC(=O)CC1c1ccccc1 (stereo unspecified),-0.4%

Remaining list, next part.
Molecule,NPR1 antag
Cc1ncc(C(=O)N(C)CC2CCCN(CCc3ccc(Cl)cc3)C2)c(=O)[nH]1 (stereo unspecified),2.2%
COc1cc(NC(=O)Cn2ccn3nc(-c4ccc(F)cc4)c(CO)c3c2=O)cc(OC)c1,5.9%
CC(C)c1nc(C(=O)N(C)C2CCCN(CCCc3ccccc3)C2)cs1 (stereo unspecified),-1.9%
COc1cc(C(=O)NC2CCCN(c3cc(-c4ccc(F)cc4)[nH]n3)C2)cc(OC)c1OC (stereo unspecified),-10.2%
CN(C(=O)C1=NO[C@@H]2CN(CCc3ccccc3)C[C@H]12)c1ccccc1,-1.4%[70.6 µM]
CN1C[C@@H]2CCCN3CCC[C@@H]([C@H]23)[C@H]1CCCC(=O)NCCc1nc2ccccc2n1C,2.2%
COCC(=O)NC[C@H]1OC[C@@H](NC(C)C)[C@@H]1O,-1.4%[70.6 µM]
CC(=O)N1CCC(Cc2ncc(C)n2Cc2ccccc2)C1 (stereo unspecified),11.4%

Further records follow.
Molecule,NPR1 antag
O=C(NC1CCN(c2cc(-c3ccc(F)cc3)[nH]n2)C1)c1ccc2cc[nH]c2c1 (stereo unspecified),2.9%
Cc1ccccc1Oc1ncccc1CNCc1cc2c(cc1Cl)OCO2,-0.4%
O=C(NCC1(COc2cccnc2)C[C@@H](O)[C@@H](O)C1)c1ccc(F)cc1 (stereo partly specified),5.9%[70.6 µM]
CCN(CC)Cc1nc(C2(O)CCN(C3CCC3)CC2)cs1,1.6%[70.6 µM]
O=C(Nc1ccc2c(c1)OCO2)c1cccc2c1CCN2C(=O)Nc1ccc(F)cc1,7.08µM*
O=C(CCC[C@@H]1[C@H]2CCCN3CCC[C@@H](CN1C(=O)c1cc(F)cc(F)c1)[C@@H]23)NCc1ccccc1,0.5%
COCC1CN(C)CC12CCN(Cc1cc(Br)ccc1F)CC2 (stereo unspecified),-3.8%
O=C(CC(c1ccc(F)cc1)c1cn(Cc2ccccc2)c2ccc([N+](=O)[O-])cc12)N1CCCC1 (stereo unspecified),-18.4%

Additional results.
Molecule,NPR1 antag
Cc1cn2nnc(C(=O)NC3CCCCCCC3)c2c(=O)[nH]1,7.3%
COc1ccc(C(=O)NCC2Cn3cccc3C(=O)N2Cc2ccccc2)cn1 (stereo unspecified),-1.3%
CCOC(=O)C1=C(C)N=C2SC=C(CC(=O)NCC3CCCO3)N2C1c1ccc(Cl)cc1 (stereo unspecified),-30.0%
O=C(c1cc(F)ccc1F)N1CCC2(CC1)NC(=O)N(Cc1ccccc1)C2=O,1.9%
O=C(CC1CCCN(c2cnn(CC3CC3)c(=O)c2)C1)NCc1cc(F)ccc1F (stereo unspecified),2.8%
CC(C)N1CCCC2(CCN(CCCC(=O)O)C2)C1=O (stereo unspecified),0.2%
CN(CC1CCOC1)C(=O)C1CCCC1 (stereo unspecified),-2.8%
COc1ccc(CNC(=O)NCCc2noc(-c3ccncc3)n2)cc1,-19.1%

(list continues)
Molecule,NPR1 antag
COc1ccc(-c2ccnc3nc(CC(C)C)nn23)cc1OC,5.5%
O=C([C@@H]1C[C@H](Oc2ccccc2)CN1S(=O)(=O)c1ccccc1)N1CCCC1,-10.6%
CNC(=O)c1cccc(-c2cnc3[nH]cc(CC(=O)N4CCCC4)c3c2)c1,-9.3%[70.6 µM]
Cc1cnc(CCNS(=O)(=O)c2ccc(C#N)cc2)n1C1CCC1,2.5%
CC(=O)NCC(=O)NCC1CCN(c2cc(-c3ccc(F)cc3)[nH]n2)CC1,0.8%
CCOc1ncccc1C(=O)NC1CC(c2nnc(CN(C)C)n2C)C1 (stereo unspecified),-0.9%
CCC(C)(C)C(=O)N1CCC(N2C(=O)CCC2C(=O)NC(C)C)CC1 (stereo unspecified),-0.3%
Cc1nc([C@@H]2CN(C(=O)CCc3c(C)n[nH]c3C)C[C@H]2C(N)=O)n[nH]1,10.1%

Further structures follow:
Molecule,NPR1 antag
CCCS(=O)(=O)N1CCC2(CC1)CC1C(=O)NCCN1C2 (stereo unspecified),5.1%
COc1ccc(N2CC(C(=O)N3CCC(C(=O)NCc4cccc(Cl)c4)C3)NC2=O)cc1 (stereo unspecified),21.0%
COc1ccc(CC(=O)N2CC[C@@H](CC(=O)O)[C@@H](CCN3CCOCC3)C2)cc1,1.0%[70.6 µM]
O=C(NCc1nnc2ccc(-c3ccc(F)cc3)nn12)c1cccc(OC(F)(F)F)c1,4.9%
Cn1nc(C(=O)N2CCC(Oc3ccc(-c4noc(C5CC5)n4)cc3)C2)c2ccccc21 (stereo unspecified),?
O=C(Nc1ccc2c(N3CCCCC3)ncnc2c1)c1ccc(F)c(F)c1,1.7%
CN1CCCCCC1C(=O)N1CCN(c2ccc(C#N)cn2)CC1 (stereo unspecified),-0.3%
O=C(Nc1ccc([C@H]2OCC(=O)N(Cc3ccc(F)cc3)[C@@H]2CO)cc1)C1CCOCC1,2.0%

A second format for 4 compounds above.
| NPR1 antag | Molecule |
| --- | --- |
| -1.7% | CCc1ccc(N2CC(c3noc(-c4ccco4)n3)CC2=O)cc1 (stereo unspecified) |
| 2.7% | NCC(=O)N1CCC(n2nccc2NC(=O)c2ccc3c(c2)OCO3)CC1 |
| -9.1%[70.6 µM] | COc1ccccc1-c1ccnc(-c2nnc(C)n2CCN2CCOCC2)c1 |
| -6.3% | COC(=O)C1=C(C)N=C2SC=C(CC(=O)Nc3ccc(OC)cc3)N2C1c1cccc(OC)c1 (stereo unspecified) |

More results follow.
Molecule,NPR1 antag
CC(C)=CCn1c(-c2ccccc2Cl)cn2cc(C(=O)NCCCO)nc2c1=O,0.1%
O=C(Nc1ccc(F)cc1)N1CCC(CCNC(=O)C2(c3ccccc3)CC2)CC1,-14.8%
COc1ccc(OC)c(CNC(=O)c2ccc(-c3ccc(N4CCSCC4)nc3)cc2)c1,7.08µM*
Cn1nc(-c2nncn2CC2CC2)c2c1CCN(C(=O)C1CC1)C2,11.3%
O=C(Cn1cnnn1)N1CCc2ncnc(NC[C@H]3CCCO3)c2CC1,-2.0%
CC(C)(Oc1ccc2c(c1)CCC2)C(=O)N1CCC2(CCCNC2=O)C1 (stereo unspecified),5.2%
Cc1ncc2n1C(=O)N(C1CCN(Cc3ccc(C(F)(F)F)cc3)CC1)C2,?
Cc1cc(=O)n(CC(=O)Nc2ccc3c(c2)OCCO3)c(-c2ccc(Cl)cc2)n1,-0.2%

Going on with the list.
Molecule,NPR1 antag
COc1cccc(Nc2n[nH]c(C(O)c3cccc(C(F)(F)F)c3)n2)c1 (stereo unspecified),?
CS(=O)(=O)N1C[C@H]2CCN(Cc3ccc(Cl)cc3F)C[C@H]21,0.1%
CCS(=O)(=O)N1CCN(C2CCN(CCC(C)C)C2=O)CC1 (stereo unspecified),4.0%
COCCN1CCOC[C@H]2CCN(C(=O)CCC3CCCC3)C[C@H]21,-0.4%
